# Cruzain Triton: blocks cruzain activity in presence of Triton detergent; purified cruzain, Z-FR-AMC fluorescence, 0.01% Triton; Potency, µM, for inactives: max response, negative = inhibition, actives largely listed as inhibitors; 200,000 compounds, 0.43% hits; AID 1478;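 further: plate controls were neutral wells for no effect and buffer without enzyme for full effect; nearly all actives have a fitted effect of over 40% in size; top concentration of the series not given in the record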
# Target sequence (P25779 123-467 limits assumed): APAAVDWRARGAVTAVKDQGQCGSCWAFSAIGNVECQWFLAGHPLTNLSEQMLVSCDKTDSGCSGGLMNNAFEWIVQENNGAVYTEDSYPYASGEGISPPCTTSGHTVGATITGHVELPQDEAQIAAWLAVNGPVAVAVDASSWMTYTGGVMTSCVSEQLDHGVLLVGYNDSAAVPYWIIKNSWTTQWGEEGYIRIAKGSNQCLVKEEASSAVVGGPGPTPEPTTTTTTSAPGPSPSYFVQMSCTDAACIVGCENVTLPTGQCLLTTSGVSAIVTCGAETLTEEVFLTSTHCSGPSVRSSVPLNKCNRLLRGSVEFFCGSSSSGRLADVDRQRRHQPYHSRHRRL
#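 Read-out: AMC fluorescence (360 nm excitation, 450 nm emission), four reads over 2 min, first-to-third difference used. Conditions: cruzain 1.5 nM, Z-FR-AMC 2 uM, pH 5.5 acetate, 5 mM DTT, 0.01% Triton X-100.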
# LASV entry inh: blocks Lassa virus binding to or entry into cells | Lassa virus pseudotype entry inhibition, cell reporter; control for the full effect not named in the record | Potency, µM (highest dose often 37.9 µM), for the others: at the highest dose activity change, negative = inhibition, actives largely listed as inhibitors | 300,000 compounds, 1.2% hits; active means well fitted inhibition curve with a large enough effect; inconclusive means small, poorly fitted or top-dose-only effect, or effect the other way; inactive means flat fitted curve, though single readings scatter; tested in HEK293 cells; further: on the % scale 0 is the no-effect control and ±100 the full control effect; nearly all actives have a fitted effect of over 50% in size; luciferase read-out
# StopGo reporter: FMDV 2A StopGo reporter, luciferase signal. human cells with a luciferase reporter of 2A StopGo recoding; control for the full effect not named in the record. Potency, µM (highest dose often 57.9 µM), for the others: top-dose signal change, negative = less light. 410,000 compounds, 1.2% hits. AID 1159524; active = well fitted falling curve with a large enough effect; inconclusive = small, poorly fitted or top-dose-only effect; inactive = no such curve, though single readings can be large or run the other way; tested in HEK293T cells; further: on the % scale 0 is the no-effect control and ±100 the full control effect; nearly all actives have a fitted effect of over 45% in size; luciferase light after 4 h
# RE007 growth inh: less growth of the S. pombe RE007 Vpr strain. S. pombe RE007 Vpr strain, BacTiter-Glo ATP luminescence, 24 h; control for the full effect not named in the record. Potency, µM (highest dose often 92.2 µM), for the others: top-dose activity change, negative = less growth. 360,000 compounds, 0.21% hits; active = well fitted falling curve with a large enough effect; inconclusive = small, poorly fitted or top-dose-only effect; inactive = no such curve, though single readings can be large or run the other way;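 further: on the % scale 0 is the no-effect control and ±100 the full control effect; nearly all actives have a fitted effect of over 50% in size; the assay follows cell death caused by Vpr and the record does not say whether a fall means rescue or toxicity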
#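 Fission yeast RE007 carrying one integrated HIV-1 vpr copy, seeded at OD 0.01 in PMG+AL medium with 23 nL pinned compound. Grown 24 h at 30 degrees; viability read by BacTiter-Glo luminescence after 5 min.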
# NS1 inh: blocks influenza NS1 protein function. S. cerevisiae slowed by influenza A NS1, growth recovery by OD600. Potency, µM (series often up to 46.1 µM), for inactives: top-dose activity, positive = more growth. 270,000 compounds, 0.4% hits. AID 2326; active means well fitted rising curve with a large enough effect; inconclusive means small, poorly fitted or top-dose-only effect; inactive means no such curve, though single readings can be large or run the other way; further: nearly all actives have a fitted effect of over 50% in size
#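 A cell-based growth assay was used: compounds that relieve NS1-induced slow growth of budding yeast raise OD600. Assay medium was yeast nitrogen base with ammonium sulphate and -URA supplement, pH 6.0, with 2% galactose.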
# MARV entry inh: inhibitors of Marburg virus binding or cell entry; Marburg virus pseudotyped entry inhibition, cell reporter; control for the full effect not named in the record; about a third of the inactives were read at about 46 µM; Potency, µM (top dose mostly 37.8 µM), inactives show top-dose activity change, negative = inhibition, hits mostly inhibitors; 300,000 compounds, 1.8% hits; AID 540276; active = well fitted inhibition curve with a large enough effect; inconclusive = small, poorly fitted or top-dose-only effect, or effect the other way; inactive = flat fitted curve, though single readings scatter; tested in HEK293 cells; about a fifth of its hits are not listed in these tables; further: on the % scale 0 is the no-effect control and ±100 the full control effect; luciferase read-out
# Cruzain noTriton: blocks cruzain activity in detergent-free assay; AID 1476; Potency, µM, inactives show max response, negative = inhibition, usual class: inhibitors; 200,000 compounds, 2.3% hits; purified cruzain, Z-FR-AMC fluorescence, no detergent;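 further: plate controls were enzyme without inhibitor for no effect and buffer without enzyme for full effect; nearly all actives have a fitted effect of over 40% in size; top concentration of the series not given in the record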
#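 Detergent-free condition (0.00005% Triton X-100) in acetate buffer pH 5.5 with DTT. 1.5 nM enzyme and compound were pre-mixed 15 min, then 2 uM Z-FR-AMC substrate added; reaction progress from fluorescence change between first and third reads (60 s).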
# SARS PLP yeast: inhibitors of SARS-CoV papain-like protease in yeast. 330,000 compounds, 0.19% hits. AID 485353. Potency, µM (highest dose often 32.9 µM), without a hit: at the top dose activity, positive = growth rescue. S. cerevisiae expressing SARS-CoV PLpro, growth rescue; control for the full effect not named in the record; active means well fitted rising curve with a large enough effect; inconclusive means small, poorly fitted or top-dose-only effect; inactive means no such curve, though single readings can be large or run the other way; further: 0% is about no effect; nearly all actives have a fitted effect of over 55% in size; growth read by luminescence after 48 h
# * marks the source's active call; other numbers are inactive results; u = inconclusive; x = not tested or not shown; & = joins results of further samples; [ ] = another dose, or the depositor's remark. Unless noted, the call rests on the fitted dose curve; in most records, active means well fitted curve in the direction sought with a large enough effect; inconclusive means small, poorly fitted or top-dose-only effect, or another doubt; inactive means no such curve, though single readings can be large; an effect the other way counts as inactive or inconclusive. Potency means the concentration at half of the fitted maximal effect.
SMILES,Cruzain Triton,LASV entry inh,StopGo reporter,RE007 growth inh,NS1 inh,MARV entry inh,Cruzain noTriton,SARS PLP yeast
O=C(O)CCCN=C1NC2(CCCC2)Cc2ccccc21,0.7%,-5.4%,-7.3%,-16.9%,14.1%,-0.1%,4.6%,-17.4%
O=C(NCCc1c[nH]c2ccccc12)c1cc(Cl)c2c(c1)OCO2,x,u,24.8%,-4.6%,-46.8%,u,x,-4.0%
COc1ccc(NC2CC(=O)N(c3cccc([N+](=O)[O-])c3)C2=O)cc1 (stereo not given),x,-1.8%,-11.3%,-22.6%,x,12.6%,x,-2.7%
Cc1csc(SCC(=O)N(C)CC(=O)Nc2ccccc2Cl)n1,x,-4.2%,8.4%,6.8%,x,15.5%,x,x
c1ccc2c(N3CCCCC3)nc(N3CCOCC3)nc2c1,x,-23.9%[46.1 µM],1.7%,5.9%,x,u,x,-1.0%
Cc1ccc(Nc2c(-c3cc(Br)ccc3F)nc3cc(C)ccn23)cc1,-5.1%,4.1%[46.1 µM],-15.4%,x,x,u,5.4%,x
O=C1c2cccc3c([N+](=O)[O-])ccc(c23)C(=O)N1c1ccc(Cl)cn1,-3.5%,u,25.1µM*,u,-161.6%,u,u,-16.0%
COc1ccc(CNC(=O)CNC(=O)N2CC(=O)Nc3ccccc32)cc1,x,x,17.8%,-0.9%,3.0%,x,x,-8.0%
O=S1(=O)CCOCCCN1Cc1ccccc1F,x,x,-8.7%,5.7%,11.3%,x,x,-10.2%
COc1ccc(OC)c(C(=O)c2ccc(Cl)cc2)c1,x,-4.2%,-3.5%,19.6%,-4.7%,u,x,0.1%
CNC(=S)NNc1nc(-c2ccccc2)c2cc(Cl)ccc2n1,x,-26.0%[46.1 µM],-10.1%,14.0%,x,u,x,x
CCc1ccc(C2c3[nH]c4ccccc4c3CCN2C(=O)c2cc(C)nn2C)cc1 (stereo not given),x,x,-11.5%,1.2%,14.0%,x,x,-0.6%
Cc1cccc(Cn2c(C)nc3ccc([N+](=O)[O-])cc3c2=O)c1,x,6.7%[46.1 µM],-0.4%,16.1%,20.0%,u,x,3.6%
COc1ccc(/C=C/c2nc(C#N)c(N3CCC(C)CC3)o2)cc1OC,-6.6%,2.0%[46.1 µM],7.9%,x,x,3.2%[46.1 µM],u,x
O=C(CSc1ncc(C(F)(F)F)cc1Cl)N1CCN(S(=O)(=O)c2ccc(Cl)cc2)CC1,-6.4%,-17.3%,x,-5.8%,u,u,6.9%,-7.7%
CCOc1cc(Br)c(C=O)cc1OCC,x,-11.8%,-21.1%,2.7%,x,-17.5%[46.1 µM],x,0.4%
S=c1[nH]nc(-c2cnccn2)n1-c1ccccc1,3.8%,-5.1%,-21.7%,-8.5%,7.7%,-4.2%,-9.7%,9.3%
CC(=O)c1cc(-c2ccc(F)cc2)n(CCC(=O)Nc2cc(C)[nH]n2)c1C,-0.7%,-25.2%,-19.5%,10.4%,-3.0%,-0.4%,2.3%,3.6%
N#C/C(=C\c1ccccc1)c1nc2ncccc2[nH]1,3.2%,1.1%,11.8%,-0.3%,-42.1%,17.2%,-3.4%,u
CC(=O)N1c2c(cc(Br)cc2S(=O)(=O)N2CCCCC2)CC1C (stereo not given),x,-23.2%[46.1 µM],1.8%,-9.9%,-4.3%,-9.7%[46.1 µM],x,-7.7%
C/C(=N/NC(=O)CSCc1ccc(Cl)cc1)c1cccc(NC(=O)c2ccccc2)c1,-3.7%,-7.7%,x,7.0%,-60.0%,-4.1%,u,4.8%
O=C(CN1CCCCC1)Nc1ccc(S(=O)(=O)c2ccc(NC(=O)CN3CCCCC3)cc2)cc1,x,0.0%[46.1 µM],-8.2%,3.7%,x,u,x,x
CC(C)(C)c1ccc(S(=O)(=O)N2CCCCC2)cc1,-6.4%,-3.8%,-9.1%,9.6%,-11.1%,-2.2%,-7.4%,1.7%
CCC(=O)N(Cc1cc2cc(OC)ccc2[nH]c1=O)c1cc(C)ccc1C,-2.7%,-7.5%,-3.1%,-2.1%,-1.2%,8.5%,0.2%,1.9%
CCOc1cc(CNCCO)cc(Br)c1OCc1ccccc1Cl,0.5%,u,12.6µM*,50.0%,-14.6%,15.8µM*,7.3%,-12.5%
# Going on with the list:
SMILES,Cruzain Triton,LASV entry inh,StopGo reporter,RE007 growth inh,NS1 inh,MARV entry inh,Cruzain noTriton,SARS PLP yeast
COc1cccc(CNCCCSc2nnnn2C)c1,-0.6%,5.1%[46.1 µM],-4.1%,x,x,3.7%[46.1 µM],-2.8%,x
N#Cc1ccccc1OCCCNC1CCCC1,x,u,-3.2%,-19.1%,5.5%,u,x,0.6%
COc1ccc(C)cc1Nc1cc(C)nc(C)n1,-2.0%,4.9%[46.1 µM],-19.7%,x,x,-22.0%[46.1 µM],-6.3%,x
CCCCN1C(C(=O)Nc2ncccn2)=C(O)c2ccccc2S1(=O)=O,x,u,-24.8%,-11.0%,-1.5%,-3.9%,x,1.5%
O=C(CN1C(=O)NC2(CCCCCC2)C1=O)Nc1ccc2c(c1)CCC2,x,-14.0%[46.1 µM],-0.5%,4.8%,4.3%,u,x,-5.0%
Cc1onc(-c2ccccc2Cl)c1C(=O)Nc1nnc(-c2ccc(Cl)cc2Cl)s1,-2.3%,x,-28.9%,11.8%,19.6%,x,u,-1.2%
S=c1[nH]nc(-c2cccnc2)n1/N=C/c1ccco1,x,x,-1.6%,1.7%,7.8%,x,x,1.2%
Cc1ccc(CNc2ncnc3[nH]ncc23)cc1,x,-6.0%,-26.4%,-7.3%,x,-8.1%,x,x
Cc1no[n+]([O-])c1COc1cccc(/C=N/Nc2nncn2N)c1,x,x,0.3%,8.2%,1.1%,x,x,-2.1%
NC(=O)c1nsc(C(=O)N(CC(=O)NCc2ccc3c(c2)OCO3)C2CCCC2)c1N,-1.2%,2.6%,-8.4%,13.5%,u,3.9%&-7.1%,-6.7%,-1.1%
Cc1ccc(CN2C(=O)c3ccccc3Sc3ccc(C(=O)NCc4ccco4)cc32)cc1,0.7%,u,6.5%,x,x,x,u,x
COc1ccc2cc(CN(CC3COCCO3)S(=O)(=O)c3ccc(Cl)cc3)c(=O)[nH]c2c1 (stereo not given),9.2%,u,0.0%,7.1%,-5.6%,26.5%&26.5%[46.1 µM],28.8%,3.5%
CSc1nc(Cl)c(Br)c(N2CC2)n1,x,1.1%[46.1 µM],2.0%,0.7%,x,12.6%[46.1 µM],x,x
COc1ccc(C(=O)NC(=S)NC2CCSC2=O)cc1 (stereo not given),-0.5%,4.1%,18.8%,-12.0%,28.5%,1.8%,-9.0%,u
COc1ccc(C2OCC(C)(C)CO2)cc1OC,x,10.1%[46.1 µM],5.4%,5.5%,x,1.6%[46.1 µM],x,x
CC(=O)Nc1ccc(NC(=O)c2ccc(-n3c(C)ccc3C)cc2)cc1,-4.2%,-2.9%,-7.9%,-2.2%,23.5%,u,6.6%,3.5%
CC[C@H](C)[C@@H](CNC)NC[C@@H](Cc1ccc(O)cc1)NCC(C)(C)C,x,x,-9.2%,-7.8%,0.8%,x,x,-3.3%
COc1ccc(C(=O)NCC(c2ccc3c(c2)OCO3)N2CCN(c3ccccc3F)CC2)cc1 (stereo not given),-3.9%,u,-9.0%,x,x,x,-9.2%,x
COc1ccc(C(=O)NCCNc2ccc([N+](=O)[O-])cc2)cc1,x,9.8%,-9.3%,-21.4%,-3.3%,-23.6%,x,-0.6%
COc1ccc(C2c3c(n(C)c4ccccc34)C(=O)N2CC(=O)Nc2cccc(Cl)c2C)cc1 (stereo not given),-6.0%,0.4%[46.1 µM],-15.6%,x,x,x,u,x
CC(C(=O)Nc1ccc(S(=O)(=O)N2CCOCC2)cc1)N1CCN(c2ccccn2)CC1 (stereo not given),x,-5.5%,-19.1%,-16.2%,x,-1.7%[46.1 µM],x,-0.5%
Cc1ccc(NC(=O)CCl)c(C)c1,x,u,u,-3.9%,2.1%,u,x,19.2%
CCN(CC)C(=O)C1CCCN(c2ccc([N+](=O)[O-])cc2[N+](=O)[O-])C1 (stereo not given),x,x,-19.5%,3.3%,-1.3%,x,x,-0.4%
O=C(Nc1ccccn1)c1ccc(S(=O)(=O)c2ccc(Cl)cc2)cc1,x,u,0.0%,9.2%,-10.0%,-3.8%[46.1 µM],x,-1.7%
O=C(c1cc(-c2cccnc2)nc2ccccc12)N1CCC2(CC1)OCCO2,0.9%,-0.8%,-4.2%,7.9%,-0.3%,6.9%,4.8%,-4.5%
# Further entries.
SMILES,Cruzain Triton,LASV entry inh,StopGo reporter,RE007 growth inh,NS1 inh,MARV entry inh,Cruzain noTriton,SARS PLP yeast
COc1ccc(CN2CCNC(=O)C2CC(=O)N(C)Cc2ccccn2)cc1OC (stereo not given),x,10.3%,-2.9%,-5.2%,1.6%,1.8%[46.1 µM],x,0.5%
CCCn1nc(NC(=O)CC(C)C)c2cc3cccc(C)c3nc21,x,2.6%,13.2%,3.7%,7.0%,-0.6%[46.1 µM],x,1.1%
CCn1c2ccccc2c2cc(NC(=O)C/C(C)=N/NC(=O)c3ccccc3N)ccc21,-5.0%,7.7%,-9.9%,-3.1%,17.6%,-4.2%,-5.4%,3.5%
CCOC(=O)c1c(C)[nH]c(CCC(=O)Nc2ccccc2C(F)(F)F)c1C,1.5%,u,8.3%,x,x,x,16.4%,x
O=C(O)c1cc(-c2ccc(C(F)(F)F)cc2)nc2n[nH]c(-c3ccccc3)c12,-1.6%,-17.8%[46.1 µM],26.4%,x,x,x,8.4%,x
Cc1cc(C)c2c(n1)nn1c(NCCCN(C)C)cc(C)nc21,-7.0%,-9.1%,2.1%,-9.4%,-5.0%,u,8.7%,-2.0%
CN(C(=O)c1ccc2nccnc2c1)C1CCCCC1,x,x,4.6%,3.9%,4.7%,x,x,0.9%
COc1ccc(/C(C)=N/Nc2nc3ccccc3nc2C)cc1,x,u,0.0%,11.0%,1.4%,u,x,-0.3%
CCN(CC(=O)Nc1c(F)cccc1F)C(=O)c1ccc(C2SCCS2)cc1,x,-23.9%,-11.7%,0.6%,x,4.4%,x,1.3%
